LANA-H2B inh: blockers of LANA interaction with H2A/H2B – biochemical, FP readout, HTS, primary screen. inhibition, % (concentration not given with the values). AID 2629, 2010. 320,000 compounds, 0.6% hits. Protein LANA1 (Human herpesvirus 8 type P (isolate GK18)), Q9QR71. cell-free LANA-H2A/H2B peptide, fluorescence polarization; in the data active = inhibition mostly above about 10%, no sharp cut-off; inactive = mostly below about 6.7%;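 also: stock transfer was 7.5 nL into about 10 µL; 0% = median of vehicle wells and 100% = median of positive control wells; one replicate is shown; the record names a cut of 25% in any replicate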
T cruzi inh: inhibitors of intracellular T. cruzi growth, primary screen, luminescence, NIH3T3 host cells; T. cruzi beta-gal in NIH3T3, 90 h; inhibition, % (test concentration not listed); 300,000 compounds, 1.4% hits;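 active = mean inhibition across valid replicates above about 55%, limit read from the data; inconclusive = mean below that limit but half or more replicates reach it; inactive = mean below it, under half of replicates reach it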;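 also: signal also drops with host cell toxicity which is not excluded here; 0% = plate median of DMSO wells and 100% = zero luminescence signal; higher percent means less beta-gal luminescence so fewer parasites; stock transfer was 50 nL into about 50 µL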
RanGTP-Imp inh: inhibitors of RanGTP-importin-beta interaction, primary screen, biochemical, FRET, CFP-Ran, YFP-importin-beta, homogeneous; inhibition, % (concentration not given with the values); 300,000 compounds, 1.1% hits; Ran GTPase (GTP-bound) - importin-beta complex; cell-free CFP-Ran/YFP-importin-beta FRET ratio;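 active = most replicates above 15%; inconclusive = exactly half above 15%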;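 also: 0% = DMSO wells and 100% = Ran loaded with GDP instead of GTP; wells of about 40 µL received 100 nL stock; the first replicate is given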
Beta2AR agonist: beta2AR agonists driving receptor internalization, primary screen, cell-based, FAP fluorogen, flow cytometry; Beta-2 adrenergic receptor (Homo sapiens), P07550; Am2.2-beta2AR cells; reference of the scale not given here; response, % (concentration not given with the values); 340,000 compounds, 0.43% hits; AID 504454, 2011;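 active = response above a set limit, near 3 SD of response in nonfluorescent compounds, cut at about 42% in these data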;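 also: stock transfer was 100 nL into about 11 µL; a reference agonist was the positive control; negative values mostly stem from fluorescent compounds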
Target sequence (P07550 whole entry, looked up): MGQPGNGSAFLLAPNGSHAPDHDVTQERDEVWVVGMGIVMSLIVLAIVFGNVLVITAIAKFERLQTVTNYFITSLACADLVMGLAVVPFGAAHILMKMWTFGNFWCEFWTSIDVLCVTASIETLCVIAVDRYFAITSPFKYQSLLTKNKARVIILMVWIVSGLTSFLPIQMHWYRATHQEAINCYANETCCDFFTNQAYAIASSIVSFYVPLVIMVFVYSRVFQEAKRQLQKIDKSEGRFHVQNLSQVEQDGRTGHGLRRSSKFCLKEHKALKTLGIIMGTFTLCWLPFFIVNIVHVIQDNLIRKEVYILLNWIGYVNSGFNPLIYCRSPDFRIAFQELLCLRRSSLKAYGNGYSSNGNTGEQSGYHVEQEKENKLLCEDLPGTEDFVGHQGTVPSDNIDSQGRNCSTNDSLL
Beta cell apopt: inhibitors of cytokine-induced beta cell apoptosis, primary screen, luminescence; protection from apoptosis, % (no concentration beside the values); 300,000 compounds, 0.8% hits; INS-1E cytokine-induced death, ATP luminescence, 48 h; percent of positive-control rescue, neutral wells zero;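 active = all replicates at 75% or more, or half of them and the mean; inconclusive = half reach 75% but not the mean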;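 also: 0% = cytokine-treated negative control wells and 100% = positive control rescue; higher means more ATP so stronger rescue from cytokine killing; wells of about 40 µL received 100 nL stock; the first replicate is given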
Bfl-1 A1 inh: caspase 3/7 activation in MEF A1-2A-BIM cells, primary screen, A1 inhibitor project, cell-based, luminescence, HTS | AID 2462, 2010 | Caspase-Glo 3/7 luminescence, 3 h; percent of clofoctol response, vehicle zero | caspase activation, % (concentration not given with the values) | 330,000 compounds, 0.066% hits;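 active = over half of replicate activation scores above 10%, or exactly half above 10 with the replicate mean above 10; inconclusive = replicate mean below 10 yet half the replicates above 10; inactive = over half of replicates below 10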;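 also: wells of about 30 µL received 50 nL stock; many hits fall short of the cut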
UCH37 DUB inh: inhibitors of human UCH37 deubiquitinase, primary screen, biochemical, Ub-AMC cleavage, fluorescence. Ubiquitin carboxyl-terminal hydrolase isozyme L5 (Homo sapiens), Q9Y5K5. purified proteasome/UCH37. inhibition, % (test concentration not listed). 330,000 compounds, 0.33% hits. AID 588478, 2011;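 active = mean of two replicates above 20%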;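 also: 0% = compound-free wells with enzyme and 100% = wells lacking proteasome; stock transfer was 100 nL into about 20 µL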
Target sequence (Q9Y5K5 whole entry, looked up): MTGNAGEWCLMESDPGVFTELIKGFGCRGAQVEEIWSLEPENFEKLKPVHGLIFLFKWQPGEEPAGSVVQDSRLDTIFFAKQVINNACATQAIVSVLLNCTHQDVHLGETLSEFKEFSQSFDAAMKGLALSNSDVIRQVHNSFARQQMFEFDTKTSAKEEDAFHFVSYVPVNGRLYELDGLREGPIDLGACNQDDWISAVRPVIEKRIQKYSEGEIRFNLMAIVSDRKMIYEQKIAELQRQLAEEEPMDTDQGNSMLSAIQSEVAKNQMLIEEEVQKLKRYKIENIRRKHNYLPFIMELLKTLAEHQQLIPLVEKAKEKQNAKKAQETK
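Material: Human UCH37 enzyme supplied as purified proteasome complex | Schedule: 30 min compound-proteasome preincubation then 25 min substrate reaction, room temperature | Detection: AMC fluorescence from Ub-AMC cleavage, excitation 355 nm, emission 460 nm | Benchmarks: Wells without proteasome as full block, compound-free enzyme plus substrate as uninhibited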
Calb FLC: C. albicans growth inhibition with fluconazole, primary screen, CaCi-2 strain, Alamar Blue fluorescence | C. albicans CaCi-2 (fluconazole-resistant clinical isolate) + fluconazole, 48 h | growth inhibition, % (test concentration not listed) | 300,000 compounds, 0.57% hits;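 active = most replicates above 75%; inconclusive = exactly half above 75%; inactive = most below 75%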;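 also: all wells also contain fluconazole at 8 µg/ml as a sub-toxic cotreatment; 0% = median of DMSO wells and 100% = median of geldanamycin control wells; wells of about 8 µL received 7.5 nL stock; the first replicate is given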
* hit, by the source's call; ? = inconclusive; / = no result given.

SMILES	LANA-H2B inh	T cruzi inh	RanGTP-Imp inh	Beta2AR agonist	Beta cell apopt	Bfl-1 A1 inh	UCH37 DUB inh	Calb FLC
O=C(CCC(=O)N1CCSc2ccccc21)NC1CCCCC1	-1.7	-2	-0.6	-17	3	0.4	1.1	-7
COC(=O)c1cnn(-c2ccccc2)c1C(OC)OC	0.7	-21	2.0	0	-4	0.8	2.2	3
Cc1ccc(NC2Nc3cc(C)nn3S2)c(C)c1 (stereo not given)	-2.8	-6	3.6	9	-3	1.1	4.2	3
CCCCn1c2nc3ccccc3nc2c2c(=O)n(CCC)cnc21	-3.3	9	-4.5	-18	-1	-0.8	-46	-18
COc1ccc(Br)cc1CN1CCCCCC1	0.4	21	4.3	-6	-6	0.7	/	-9
COc1ccc(CNC2CCSc3ccccc32)cc1OC (stereo not given)	2.0	3	1.4	-1	-4	0.8	-0.5	3
CCCCn1c(N)c(N(CCOC)C(=O)C2CCN(S(=O)(=O)c3ccc(F)cc3)CC2)c(=O)[nH]c1=O	4.8	-2	9.7	-4	0	-0.2	0.7	-3
COc1ccc(C(=O)N2CCC(c3ccccc3)CC2)c(OC)c1OC	0.6	-17	-2.2	4	-6	-0.3	0.7	-7
CCc1nn(CCCC(=O)N2CCN(c3cccc(C)c3C)CC2)c(=O)c2cc3occc3n12	0.1	5	4.8	-1	-3	-0.9	4.6	6
Cc1ccc(S(=O)(=O)c2nc(S(C)(=O)=O)sc2N2CCCC2)cc1	5.4	-22	-2.4	-23	-11	2.3	6.5	-1
O=C(NC1CCCCC1NC(=O)c1cccs1)c1cccs1 (stereo not given)	7.3	0	1.4	-4	-6	0.9	1.9	22
COc1ccc(CN(CC(=O)NCc2ccc(F)cc2)C(=O)c2csnn2)cc1	-3.7	-2	5.5	-7	1	-1.1	4.2	-1
O=C(c1ccccc1F)N(Cc1nc2ccccc2c(=O)[nH]1)C1CCCC1	-2.7	-9	3.3	-12	3	-0.7	2.3	9
CCCCN(C(=O)c1c(-c2ccccc2)noc1C)c1c(N)n(CCC)c(=O)[nH]c1=O	-3.5	/	/	22	-1	-1.3	2.1	/
CC(=O)N1CCN(c2ccc(N)cc2)CC1	0.0	/	/	-1	-1	0.1	1.5	/
CC(=O)C(Cc1ccccc1)NC(=O)CN1CCc2ccccc2C1 (stereo not given)	3.0	-4	13	0	3	-0.5	1.1	17
Cc1cccc(C)c1NC(=O)COC(=O)CSc1nnc(N)s1	-0.4	-14	-0.5	-4	1	0.1	1.1	0
COc1cc2[nH]c(=O)n(CCC(=O)N3CCN(c4cccc(C)c4C)CC3)c(=O)c2cc1OC	6.1	-1	0.9	2	-2	0.1	0.0	1
COc1ccc(OC)c(NC(=O)c2cc(OC(C)=O)cc(C(=O)Nc3cc(OC)ccc3OC)c2)c1	-1.7	43	-1.5	22	18	0.3	3.6	2
Cc1cccc(CN2CCC(C(=O)Nc3ccc(Oc4cccnc4)cc3)CC2)c1	-1.4	14	?	-17	-6	0.2	0.0	-16
CN(C)C(=O)Cn1c(SCC(=O)Nc2ccc3c(c2)OCO3)nc2ccccc21	0.0	0	9.9	2	-7	0.9	2.1	3
Cn1c(SCC(=O)N2c3ccccc3Sc3ccccc32)nc2ccccc21	-0.9	59*	-3.1	-1	3	0.2	1.3	?
Cc1cccc(-c2noc(CCc3ccccc3)n2)c1	-1.8	-1	5.9	4	-7	-0.9	2.3	-11
COc1ccc(/C=C/C(=O)N(CC(C)C)CC(C)C)cc1Br	0.8	/	-0.4	1	1	-0.1	2.1	44
Cc1cc(-c2ccccc2C(=O)NCc2ccccc2)on1	1.0	-4	-2.1	2	/	0.8	-0.4	-5
NC(=O)CC(NC(=O)c1cccc(Br)c1)c1ccc(NC2CCN(Cc3ccccc3)CC2)c([N+](=O)[O-])c1 (stereo not given)	-5.5	4	-5.5	-9	4	-0.7	-0.2	-13
CCNC(=O)CC1SC(=Nc2ccccc2C)N(C)C1=O (stereo not given)	2.0	-5	4.7	-2	-13	0.8	5.4	1
CCOC(=O)c1c(N)sc(C(=O)N(C)C)c1CN1CCOCC1	-2.8	-9	3.6	2	-11	-1.2	1.8	2
COc1ccc(N(C(=O)c2csnn2)C(C(=O)NC2CCCC2)c2ccccc2)cc1 (stereo not given)	-2.5	-8	0.1	0	7	0.1	3.8	5
COc1ccccc1CNC(=O)C(C)n1nc(C)n2c(cc3occc32)c1=O (stereo not given)	1.4	-2	-4.2	2	-5	-0.5	7.0	-3

Look-ups from the list:
LANA-H2B inh result of COc1ccccc1CNC(=O)C(C)n1nc(C)n2c(cc3occc32)c1=O (stereo not given) stands at 1.4
RanGTP-Imp inh result of Cc1cccc(-c2noc(CCc3ccccc3)n2)c1 stands at 5.9

One compound at a time (already shown).
Entry for Cn1c(SCC(=O)N2c3ccccc3Sc3ccccc32)nc2ccccc21 = LANA-H2B inh = -0.9; T cruzi inh = 59*; RanGTP-Imp inh = -3.1; Beta2AR agonist = -1; Beta cell apopt = 3; Bfl-1 A1 inh = 0.2; UCH37 DUB inh = 1.3; Calb FLC = ?
Entry for COc1ccc(OC)c(NC(=O)c2cc(OC(C)=O)cc(C(=O)Nc3cc(OC)ccc3OC)c2)c1 = LANA-H2B inh = -1.7; T cruzi inh = 43; RanGTP-Imp inh = -1.5; Beta2AR agonist = 22; Beta cell apopt = 18; Bfl-1 A1 inh = 0.3; UCH37 DUB inh = 3.6; Calb FLC = 2
Entry for CCOC(=O)c1c(N)sc(C(=O)N(C)C)c1CN1CCOCC1 = LANA-H2B inh = -2.8; T cruzi inh = -9; RanGTP-Imp inh = 3.6; Beta2AR agonist = 2; Beta cell apopt = -11; Bfl-1 A1 inh = -1.2; UCH37 DUB inh = 1.8; Calb FLC = 2

More entries follow:
SMILES	LANA-H2B inh	T cruzi inh	RanGTP-Imp inh	Beta2AR agonist	Beta cell apopt	Bfl-1 A1 inh	UCH37 DUB inh	Calb FLC
O=C(Nc1ccccc1)c1snc2c(=O)[nH]cnc12	-4.9	-18	2.8	3	0	-3.9	6.7	6
COc1ccc(N2CC(C(=O)Nc3nnc(SCc4ccccn4)s3)CC2=O)cc1 (stereo not given)	-14	-11	?	-9	-2	0.5	1.6	1
CCOC(=O)/C(=C/c1ccc(OC)cc1)NC(=O)c1ccco1	-0.9	-2	1.4	0	1	1.4	-2.1	-6
CCN(CC)C(=O)Oc1ccc2c(=O)c(-c3ccc(OC)cc3)coc2c1	2.3	26	2.9	-2	2	-0.9	-0.2	3
CCOC(=O)CSc1ccc(-c2nc3ccccc3[nH]2)cn1	0.5	-2	-0.4	46*	6	0.1	-14	-4
COc1ccc2oc(C(=O)OCC(=O)N3CCCC3=O)c(C)c2c1	-3.0	-5	7.0	-6	-5	1.1	-22	-1
COc1ccccc1N1CCN(C(=O)C(OC(C)=O)c2ccccc2)CC1 (stereo not given)	-4.0	-9	-0.6	-2	8	0.8	-0.3	?
O=C(CCCC(=O)c1ccccc1)Nc1ccc(O)cc1	-0.6	-7	-2.6	18	-2	-0.2	0.5	-7
CCCCC(O)(CCCC)C(=O)N/N=C(\C)c1ccc(Cl)cc1	-4.7	-7	1.9	7	2	0.2	/	-14
Cc1ccc(S(=O)(=O)N2CCN(C(=O)CCc3c[nH]c4ccccc34)CC2)cc1	-2.5	/	/	3	-1	0.2	/	/
Cc1cc(C)n(CC(=O)n2c(C)c(C)c3ccccc32)n1	-3.9	-7	1.6	-2	-3	0.3	0.2	-19
O=C(c1cccc(C(=O)N(c2ccccn2)C2CCCCC2)c1)N(c1ccccn1)C1CCCCC1	-1.4	12	-2.4	8	2	0.2	-1.3	-65
COc1ccc(C)cc1NC(=O)CN1C(=O)COc2ccc(S(=O)(=O)N3CCCCC3)cc21	-9.1	-3	0.0	-1	7	0.9	4.6	-4
COc1ccc(CNC(=O)CSc2nc3cccnc3s2)cc1	4.2	-3	2.6	-6	-5	0.1	2.6	-25
COc1cc(/C=N/NC(=S)NCc2ccco2)cc(OC)c1OC	0.9	-19	0.9	5	-12	-0.2	/	-5
CCc1nn(CC(=O)NCCc2ccc(Cl)cc2)c(=O)c2cccn12	-4.4	0	6.2	5	-6	-0.1	1.5	29
CCN(C(=O)c1coc(=O)c2ccccc12)c1cc(OC)ccc1OC	0.3	-5	?	0	-1	-0.6	0.8	-6
CCCCn1c(N)c(N(CC)C(=O)CCNC(=O)NC23CC4CC(CC(C4)C2)C3)c(=O)[nH]c1=O	3.0	8	1.3	-4	-3	0.1	2.2	-10
CCOC(=O)C(NC(=O)c1ccc(OC)cc1)(N1CCCC1=O)C(F)(F)F (stereo not given)	2.4	-1	7.5	-2	4	4.3	4.6	1
COc1cccc(NC(=O)CN(C)C(=O)C23CC4CC(CC(Cl)(C4)C2)C3)c1	42*	/	/	2	6	0.1	2.2	/
O=C(OCc1nc2ccsc2c(=O)[nH]1)c1cc(Br)c(Br)s1	-2.9	4	5.1	-4	-4	0.3	2.7	/
CSc1nnc(N2C(=O)C(O)=C(C(=O)c3ccc(C)o3)C2c2ccc(C)cc2)s1 (stereo not given)	7.8	-16	4.3	8	7	1.0	4.1	0
O=C(Cc1ccccc1)NNc1ccc2ccccc2c1	-1.5	9	2.3	2	3	0.3	/	?
Cc1csc(NC(=O)c2cncc(Br)c2)n1	4.1	-3	?	-3	1	-2.5	2.0	24
Fc1ccc(CSc2ncnc3scc(-c4ccccc4)c23)cc1	1.3	17	-1.3	2	-13	0.2	0.6	-51
Cc1ccc(O)c(C(CC(=O)NC2CCCCC2)c2ccccc2)c1 (stereo not given)	1.3	14	-0.7	0	-1	0.6	2.1	-5
CCOc1cc(/C=C/C(=O)O)ccc1OCCO	-3.9	-15	-3.5	3	-4	1.1	-2.4	-17
CCCc1cc(-c2[nH]ncc2-c2ccc3c(c2)OCCCO3)c(O)cc1O	-4.7	19	-0.5	8	-21	-0.6	4.3	11
Cc1cc(C)c2c(CN3CCCCC3C)cc(=O)oc2c1 (stereo not given)	-0.9	5	4.9	-7	2	-1.6	-0.4	-9
N#CCCN(Cc1ccccc1)S(=O)(=O)c1cccs1	1.4	1	-1.0	-5	/	0.9	3.8	-14
Cc1c(NC(=O)CCCN2C(=O)c3cccc4cccc(c34)C2=O)c(=O)n(-c2ccccc2)n1C	5.6	-1	-2.9	-2	-1	-0.2	-15	3
Cc1cc(N2CCN(C)CC2)nc2ccc(NC(=S)N3CCCCCC3)cc12	-5.7	32	2.4	-4	10	-0.4	-5.9	42
CCC(=O)NCCc1cc2cc(C)c(C)cc2[nH]c1=O	-2.0	-9	0.4	8	1	0.5	-6.9	-8
Cc1n[nH]c(=O)nc1NCc1ccccc1Cl	-2.0	-11	4.7	-1	-11	0.8	2.2	-3
C=CCCCCCCCCC(=O)NNC1CC(=O)N(c2ccccc2)C1=O (stereo not given)	-7.9	0	4.3	1	-3	0.9	0.3	2
